Sa RN4220 lethal – growth inhibition of S. aureus RN4220, primary screen, OD600. 16 h. inhibition, % (no concentration beside the values). 330,000 compounds, 0.33% hits. AID 1259311, 2017;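 active means z-score of -3 or lower and OD600 up to 0.18 on both plates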;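 further: plate controls were untreated cells for no effect and reference antibiotic for full effect; stock transfer was 100 nL into about 80 µL; one replicate is shown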
Autofluor counter – compound fluorescence in toxin protease inhibitor counterscreen; compound autofluorescence counterscreen, microsphere flow cytometry; stronger effect = higher value; fluorescence intensity (concentration not given with the values); 360,000 compounds, 3.1% hits;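 active means at least 3 SD above the mean of all compounds, about 16000 in these data; inconclusive means too few beads counted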;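 further: 100 nL of 1 mM stock went into each well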
Sa ugtP lethal – growth inhibition of ugtP-null S. aureus, primary screen, RN4220 ugtP deletion, OD600. 16 h; some inactives read as strong as hits. growth inhibition, % (test concentration not listed). 330,000 compounds, 0.54% hits;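 active means z-score under -3 and OD600 up to 0.15 on both plates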;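 further: plate controls were untreated wells for no effect and antibiotic for full effect; wells of about 80 µL received 100 nL stock; the first replicate is given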
BJeLR lethal – MLPCN primary cell-based screen for lethality selective to Ras in HRASV12 cells | BJeLR (HRASV12) viability, CellTiter-Glo ATP luminescence, 48 h; reference of the scale not given here | 300,000 compounds, 0.17% hits | AID 1554, 2009 | inhibition, % (no concentration beside the values);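 active means replicate mean above 50%; inconclusive means above 50% but judged a plate artefact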;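 further: 50 nL library stock added to about 25 µL; numbers are from one replicate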
Mtb hypoxia inh – PubChem AID 1159583; 300,000 compounds, 0.1% hits; M. tuberculosis hypoxia-regulated fluorescent reporter, fluorescence; fluorescence inhibition, % (test concentration not listed);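 active means 35 to 45% if threefold the growth effect, above 45% if 1.5-fold the growth effect; inactive means the rest, general growth blockers included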;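 further: wells of about 50 µL received 100 nL stock; 0% = vehicle wells and 100% = reference inhibitor wells; whole bacteria with a GFP reporter of the hypoxia response; strong numbers were not always called active; many hits fall short of the cut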
PrP 5UTR inh – inhibition of PrP 5' UTR reporter expression; inhibition, % (no concentration beside the values); 340,000 compounds, 0.35% hits; AID 488862, 2010; cell-based PrP 5' UTR mRNA reporter, plate reader;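 active means every replicate at 50% or more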;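 further: 0 = median of the neutral control wells; tested in H4 reporter cells; numbers are from one replicate; inactives centre near -14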
Mtb hypoxia inh growth – further read-out of Mtb hypoxia inh, marked with its call; growth inhibition, %; measured here: M. tuberculosis growth (absorbance);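 0% = vehicle and 100% = reference antibiotic; read after six days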
* hit, by the source's call; ? = inconclusive; / = no result given.

SMILES	Sa RN4220 lethal	Autofluor counter	Sa ugtP lethal	BJeLR lethal	Mtb hypoxia inh	Mtb hypoxia inh growth	PrP 5UTR inh
COc1ccc(/C=C/C(=O)OCC(=O)NC2CCCCCC2)cc1OC	6.2	3038	7	/	7	7	-27
CN1CCC(OC(=O)c2ccc(Cl)cc2Cl)CC1	2.0	2275	2	5	14	0	-29
Cc1ccc(S(=O)(=O)CCC(=O)OCC(=O)NCc2ccc(Cl)cc2)cc1	1.0	4956	4	0	-4	-8	-14
Cc1c(C(=O)Nc2c(F)cccc2F)sc2ncnc(N3CCN(c4ccccc4)CC3)c12	4.6	2785	-19	-3	-26	-10	-21
CCC(NC(=O)c1[nH]c(C)c(C(C)=O)c1C)c1ccc(Br)cc1 (stereo unspecified)	5.4	3207	-5	6	14	2	3
Nc1cc(N2CCCC2)c(Cl)cc1[N+](=O)[O-]	1.8	3231	9	9	14	9	-10
CCOc1cc2[nH]c(=O)n(CCCCCC(=O)NC3CCCC3)c(=O)c2cc1OCC	1.4	4902	1	-9	6	-5	-1
CC(C)NCC(O)COc1ccc(CCOCC2CC2)cc1 (stereo unspecified)	/	5670	/	-10	/	/	-19
CC(=O)c1cccc(N(CC(=O)Nc2ccccc2F)S(C)(=O)=O)c1	7.3	3820	-1	-7	12	7	-8
N/C(COc1cc(Cl)cc(Cl)c1)=N\O	/	3281	/	-8	/	/	-11
CCC(=O)OCCNc1cc(Sc2nc3ccccc3[nH]2)c2nonc2c1[N+](=O)[O-]	44	1990	1	/	14	9	-17
CCOc1ccc(Br)cc1S(=O)(=O)NC1CC(C)(C)NC(C)(C)C1	-6.0	3901	-6	5	-12	2	-7
CCc1cccc2c(C#N)cn(CC(=O)N3CCOCC3)c12	-2.3	4082	4	3	/	/	-8
COC(=O)c1ccc(Cl)c(NC(=O)CN(c2ccc3c(c2)OCO3)S(C)(=O)=O)c1	0.8	20796*	-5	2	6	15	-14
O=C(NC(NC(=S)Nc1ccccc1C(=O)O)C(Cl)(Cl)Cl)c1ccco1 (stereo unspecified)	6.1	1918	-11	-3	-3	1	-7
Cc1noc(C)c1NC(=O)N(C)CC1Oc2ccc(NC(=O)NC(C)C)cc2C(=O)N(C(C)CO)CC1C (stereo unspecified)	4.3	/	3	/	1	3	/
COCCN(C(=O)CSc1nnc(-c2ccc(C)c(C)c2)o1)c1c(N)n(CC(C)C)c(=O)[nH]c1=O	4.8	?	-3	6	9	6	-25
Cn1cnnc1SCC(=O)N1CCN(C(=O)c2ccco2)CC1	0.3	4065	4	-22	3	5	-6
COc1c2ccoc2nc2c(OC)c(OCC(OC(C)=O)C(C)(C)O)ccc12 (stereo unspecified)	2.5	5888	10	-6	/	/	-13
C#CCOCCOCCOCCNc1nc(N2CCN(C(=O)C(CO)n3cc(C(N)C(C)C)nn3)CC2)nc(N2CCN(C(=O)C(CCCCN)n3cc(C(N)C(C)CC)nn3)CC2)n1 (stereo unspecified)	2.6	/	2	/	1	7	/
COc1ccc(-c2nnc(Nc3nc4c(OC)cccc4s3)o2)cc1	6.9	3256	2	-7	15	9	6
Cc1cc(S(=O)(=O)Nc2ccc(C(=O)NCC(c3ccco3)N(C)C)cc2)ccc1F (stereo unspecified)	-2.5	6892	-3	0	3	-8	-13
Cc1ccc(CO/N=C/c2c(O)cc(C)oc2=O)cc1	/	4350	/	-1	/	/	-18
O=C(CCn1c(=O)oc2ccccc21)N(Cc1ccccc1)c1ccccc1	9.8	4078	5	-1	5	10	-9
CC(=O)c1ccccc1Oc1cc(NN2CCCCC2)c([N+](=O)[O-])cc1[N+](=O)[O-]	-0.7	3951	1	4	1	1	-10
O=C(O)c1ccc(COc2c(F)c(F)cc(F)c2F)o1	1.2	5313	-2	2	2	-5	-28
c1ccc(CC2CNCCN2CCc2cccc3ccccc23)cc1 (stereo unspecified)	-3.5	/	-24	/	13	14	/
O=C(Nc1ccccn1)c1cc(-c2cccnc2)nc2ccc(Br)cc12	/	2331	/	-5	/	/	-17
COc1ccc(Cc2nc3ccc(C(=O)NCc4ncc(C)[nH]4)cc3o2)cc1OC	3.2	4476	5	-6	2	-6	-16
CS(=O)(=O)N(CC(=O)Nc1ccc2c(c1)OCO2)c1ccccc1	1.2	10762	-4	-3	-1	-5	-6
NC1=NC(c2ccccc2)=NC1(NC(=O)c1ccccc1)C(Cl)Cl (stereo unspecified)	-2.6	5523	-6	-3	-7	6	-8
O=C(O)c1ccccc1C(=O)Nc1ccc(Oc2cccc(C(F)(F)F)c2)nc1	4.7	4488	2	1	1	0	-18
OC(CNC1Cc2ccccc2C1)COc1ccc(F)cc1 (stereo unspecified)	0.9	/	4	0	-7	0	-3
O=C(CN1CCCC1)Nc1ccc(OCc2ccccc2)cc1	0.8	3286	14	-3	10	1	-13
CCCc1cc(=O)oc2c(C)c(OCC(=O)NCCN3CCOCC3)ccc12	-0.3	12096	8	-5	9	4	-9
COc1ccc(C2(c3ccc(OC)cc3)NC(=O)N(CC(=O)Nc3ccccc3C(F)(F)F)C2=O)cc1	0.9	6005	-1	5	4	8	-1
COCCCNC(=O)N1c2ccccc2Sc2ccccc21	0.9	/	1	-3	15	3	-9
O=C(COC(=O)c1cc(Cl)nc(Cl)c1)NCCc1ccc(F)cc1	3.1	3671	1	/	26*	53*	-7
CSc1ccc(CCNC(=O)CCc2nnc3ccc(NCCCN4CCCC4=O)nn23)cc1	-2.1	5527	-8	-6	-5	2	-13
O=C(c1ccc(NC2=NC3CS(=O)(=O)CC3S2)cc1)N1CCN(Cc2ccccc2)CC1 (stereo unspecified)	6.8	4379	3	-2	3	2	-6

Six successive entries already listed, quoted:
SMILES	Sa RN4220 lethal	Autofluor counter	Sa ugtP lethal	BJeLR lethal	Mtb hypoxia inh	Mtb hypoxia inh growth	PrP 5UTR inh
CCCc1cc(=O)oc2c(C)c(OCC(=O)NCCN3CCOCC3)ccc12	-0.3	12096	8	-5	9	4	-9
COc1ccc(C2(c3ccc(OC)cc3)NC(=O)N(CC(=O)Nc3ccccc3C(F)(F)F)C2=O)cc1	0.9	6005	-1	5	4	8	-1
COCCCNC(=O)N1c2ccccc2Sc2ccccc21	0.9	/	1	-3	15	3	-9
O=C(COC(=O)c1cc(Cl)nc(Cl)c1)NCCc1ccc(F)cc1	3.1	3671	1	/	26*	53*	-7
CSc1ccc(CCNC(=O)CCc2nnc3ccc(NCCCN4CCCC4=O)nn23)cc1	-2.1	5527	-8	-6	-5	2	-13
O=C(c1ccc(NC2=NC3CS(=O)(=O)CC3S2)cc1)N1CCN(Cc2ccccc2)CC1 (stereo unspecified)	6.8	4379	3	-2	3	2	-6

Later entries:
SMILES	Sa RN4220 lethal	Autofluor counter	Sa ugtP lethal	BJeLR lethal	Mtb hypoxia inh	Mtb hypoxia inh growth	PrP 5UTR inh
O=C(O)c1ccccc1C(=O)NC1Cc2ccccc2C1	2.4	4270	2	4	16	5	-45
Cc1ccc(NCC(=O)NN=Cc2cccc(Br)c2)cc1	-6.0	/	-14	/	-13	8	/
C=CCN1C(=O)/C(=C2/Sc3ccc(OC)cc3N2C)SC1=Nc1ccccc1	2.4	4348	3	2	13	6	-30
Cc1cccc(OCC(=O)NN=Cc2ccc3c(c2)OCO3)c1	-0.2	/	0	/	-2	-3	/
O=[N+]([O-])c1ccc2c(c1)nc1n2CCN(CC2CCCO2)C1 (stereo unspecified)	3.3	4067	2	4	-15	-3	4
N#CCCN(C(=O)COC(=O)CCc1ccccc1)c1ccccc1	/	6439	/	-1	/	/	-16
CN(C)c1cc[n+](CC(O)C[n+]2ccc(N(C)C)cc2)cc1	-0.7	4174	-14	10	5	-2	-2
COc1ccc(C(=O)Nc2ccc(CN3CCCCC3)cc2)cc1	5.0	4030	2	1	17	0	-23
O=C(NCCCCNCCCNC(=O)c1ccccc1)c1ccccc1	6.1	5724	-1	/	/	/	4
O=C(CCNS(=O)(=O)c1ccccc1F)OCc1ccccc1Cl	5.9	3813	5	/	1	4	-12
O=C(CSc1n[nH]c(-c2ccccc2F)n1)Nc1cc(F)ccc1F	11	5412	-4	/	8	9	-15
O=C1NC(=Nc2ccc(O)cc2)S/C1=C\C=C\c1ccco1	12	3928	-2	3	10	4	-16
CCOc1ccc(/C=C2\SC(=S)NC2=O)cc1OC	79	2223	88*	12	6	11	-32
O=C(c1cccs1)N1CCc2ccccc21	1.5	21871*	-5	-8	-2	7	-71
CCOc1ccc(Cc2nc(C)c(CC(=O)N3CCOCC3)c(=O)[nH]2)cc1	3.5	3376	-4	11	5	2	-17
N=C1c2ccccc2CN1c1ncccn1	5.7	3091	3	7	11	7	-26
CC(C(=O)NC(=O)NC1CCCCC1)N(C)CC(=O)Nc1ccc(F)c(F)c1F (stereo unspecified)	0.4	6175	3	0	8	2	-16
COC(=O)C1=C(c2ccccc2)C[C@@H]2CC[C@H]1N2C(=O)NCC1CC1	/	3154	/	1	/	/	-35
FC(F)(F)c1ccc(Cl)c(-n2c(-c3cc(C4CC4)[nH]n3)n[nH]c2=S)c1	5.1	4568	7	9	17	1	-20
O=C(CNc1cc([N+](=O)[O-])ccc1NCCO)Nc1cccc(S(=O)(=O)N2CCCCC2)c1	2.1	6695	11	/	10	-1	-8
CCCCOC(=O)C1CCCC(C(=O)OCCCC)N1 (stereo unspecified)	2.6	2296	-12	1	/	/	-14
S=C(Cc1ccc(Cl)cc1)N1CCOCC1	2.3	2472	0	2	3	0	-4
CCCCN=C1NN=C(c2ccc(C)c(C)c2)CS1	-2.9	5010	-3	-1	-2	3	-75
CCc1ccc(N2C(=O)CC(N3CCN(Cc4ccc5c(c4)OCO5)CC3)C2=O)cc1 (stereo unspecified)	2.7	4145	8	1	6	7	-10
CCOC(=O)c1cnc2c(-c3ccccc3)cnn2c1C	8.3	2200	6	-5	-3	-1	-101
O=C(CSc1nc(-c2ccccc2)cs1)N1CCN(C(=O)c2ccco2)CC1	2.3	6484	-1	-5	2	-7	1
CC1(C)Cc2c(cnn2-c2ccccc2)C(=O)/C1=N\NC(=O)c1ccccc1O	/	3371	/	3	/	/	-62
Cc1c(C=NNC(=O)C2(O)c3ccccc3-c3ccccc32)cnn1C	1.7	/	4	/	8	7	/
CN(C)c1ccc(C(C(=O)NCC2CCCO2)N(C(=O)c2snc(C(N)=O)c2N)c2ccc3c(c2)OCO3)cc1 (stereo unspecified)	/	3578	/	0	/	/	-19
Nc1cc(Cl)ccc1Oc1ccc2ccccc2c1	-4.0	8166	95*	-13	2	0	-5
Cc1cc(C)c(NC(=O)CSc2nc(COc3ccccc3)nc3ccccc23)c(C)c1	4.0	10356	-8	1	6	4	-8
CC(C)(C)n1nnnc1SCC(=O)Nc1nn(-c2ccccc2)nc1C(N)=O	-6.9	4241	5	/	8	-4	-1
Cn1nc(CC(=O)NC2CCCCCCCCCCC2)c2ccccc2c1=O	0.3	3102	-4	13	/	/	-8
O=C(Nc1ccc(-c2csc(Nc3ccccc3)n2)cc1)c1cccc(C(F)(F)F)c1	5.2	4558	-3	1	17	6	-7
CCOc1ccc(C2c3c(oc4cc(C)c(C)cc4c3=O)C(=O)N2CCCN2CCOCC2)cc1 (stereo unspecified)	0.6	5783	16	3	/	/	-9
COC(=O)[C@]1(C)CC1C(NP(=O)(c1ccccc1)c1ccccc1)c1ccccc1 (stereo partly specified)	4.3	/	3	/	-1	6	/
COc1ccc(/C(C)=N/NC(=O)CNC(=O)/C=C\c2ccccc2)c(OC)c1	/	6060	/	2	/	/	-24
COc1cc(/C=C/C(=O)N2CCN(Cc3ccccc3)CC2)cc(OC)c1OC	3.1	4347	2	-7	8	1	19
CC(=O)Nc1ccc(Sc2ccccc2C(=O)Nc2ccc(F)cc2)cn1	2.4	3636	1	-3	6	4	-7
CCn1cc(C(=O)O)c(=O)c2cc(F)c(N/N=C/c3ccccc3)cc21	/	2459	/	-4	/	/	-9
Cc1nc2ccccc2c2oc(C(=O)NCC3CCCO3)cc12 (stereo unspecified)	3.3	10673	4	-2	4	2	-24
CCc1cccc(CC)c1NC(=O)C1CCN(C(=O)c2ccco2)CC1	5.5	5250	2	-3	4	2	-17
CCNS(=O)(=O)c1ccc(NC(=O)CC(C)c2ccccc2)cc1 (stereo unspecified)	0.8	2155	-1	-1	0	9	-1
CCOC(=O)c1c(NC(=O)COC(=O)CC(NC(C)=O)c2ccccc2)sc(C(=O)NC)c1C (stereo unspecified)	/	6595	/	-8	/	/	-20

Source: PubChem (several laboratories)
